# Bioassay records from PubChem.
# TsaE inh: displaces an ADP probe from E. coli YjeE (TsaE). purified YjeE, fluorescence polarisation of a bound ADP probe. Potency, µM. 71,000 tested, 0.05% active; active = well fitted falling curve; inconclusive = weaker or top-dose-only fall, or a rising curve; inactive = flat or poorly fitted curve;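 also: top concentration of the series not given in the record; excess ADP was the control for the full effect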
#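 Fluorescence polarization of a BODIPY Texas Red–ADP probe (2 uM) bound to purified YjeE (10 uM) was read after 15 min room-temperature incubation with compounds. Loss of polarization marks inhibitors; ADP serves as titrated control.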
# Bst PK mod: pyruvate kinase (B. stearothermophilus) modulation; partly purified Bacillus stearothermophilus pyruvate kinase, luminescence ATP production; ribose 5-phosphate activator present at AC10; 51,000 tested, 1.2% active; Potency, µM; in the data active means potency below about 11 µM; inconclusive means mostly about 12 µM to 25 µM; inactive means weaker than that;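 the screen sought inhibitors and activators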;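 also: potency is read from the fitted curve at half-maximal effect; scaled between full activation by ribose 5 phosphate and full inhibition by luteolin; about four in five hits inhibit and the cells do not say which; series up to 57 µM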
# * hit, by the source's call; i = inactive; ? = inconclusive; nt = not tested or not shown.
Compound	TsaE inh	Bst PK mod
O=C(CSc1oc(-c2ccc(F)cc2)nc1S(=O)(=O)c1ccc(F)cc1)NCC1CCCO1 (centres undefined)	i	>57
FC(F)(F)c1cc(-c2cccs2)nc(N2CCOCC2)n1	i	>57
COc1cccc(C(=O)Nc2cnc(NC(=O)c3ccco3)cc2C)c1	i	>57
Cc1ccc(C(=O)O)cc1S(=O)(=O)N1CCSCC1	i	>57
CCCCNc1nc(C)nc2c1nc(-c1ccccc1)n2C1CCN(Cc2ccccc2)C1 (centres undefined)	i	nt
O=S(=O)(NCc1ccccn1)c1ccc2c(c1)OCCO2	i	>57
CCOC(=O)CSc1nc2c(sc(=S)n2CCc2ccccc2)c(=O)n1Cc1ccco1	i	>57
CCOC(=O)c1c(C)c(C(=O)NCc2ccc3c(c2)OCO3)c(C)n1C	i	>57
COc1ccc(-c2cc(C(F)F)n3ncc(C(=O)NCC4CCCO4)c3n2)cc1 (centres undefined)	i	nt
COCC(=O)N1CCC2(CC1)CCN(c1cccc(-c3ccccc3)c1)CC2	i	nt
CC1CCc2nc(N)c(C#N)c(-c3cccn3C)c2C1 (centres undefined)	i	>57
CCCOC(=O)Nc1sc2c(c1C(=O)OCC)CCC2	i	>57
CC(C)(C)c1cc(C(c2cccnc2)N2CCN(CCO)CC2)cc(C(C)(C)C)c1O (centres undefined)	i	>57
O=C1C2ON(c3ccccc3)C(c3cccnc3)C2C(=O)N1c1ccccc1 (centres undefined)	nt	>11
CCOC(=O)c1sc(NC(=O)CSc2nnc3c4ccccc4n(CC)c3n2)nc1C	i	nt
CCc1ccccc1NC(=O)c1cc2sccc2n1C	i	nt
CCOC(=O)c1cnc(-n2cc(C)cn2)nc1Nc1ccccc1OCC	i	>57
O=C1c2ccccc2C(=O)N1OCCOCCOCCON1C(=O)c2ccccc2C1=O	i	>57
N#C/C(C(=O)Oc1ccccc1)=C1\C=CC=CN1	i	nt
N[C@@H](CSC1(c2ccc(Cl)cc2)c2ccccc2-c2ccccc21)C(=O)O	i	nt
CCC(C)OC(=O)C1=C(C)NC(=O)CC1c1ccccc1OC (centres undefined)	i	>57
O=C(O)CC/C=C\C[C@@H]1CO[C@H](c2ccccc2Cl)O[C@@H]1c1ccccc1O	i	nt
CC(C)C(NC(=O)c1ccco1)C(=O)NCC(c1ccco1)N1CCCCC1 (centres undefined)	i	>57
O=C1CCC(C(=O)Nc2cccc3ccccc23)N1 (centres undefined)	i	>57
COC(=O)c1[nH]c2cc(OC)ccc2c1NC(=O)CN1CCN(c2cccc(C)c2)C(C)C1 (centres undefined)	nt	>11
CCN(CC)c1ccc(NC(=O)CCCCCN2C(=O)c3ccccc3C2=O)cc1	i	>57
Cn1c(SCC(=O)N2CCCc3ccccc32)nnc1-c1c[nH]c2ccccc12	i	>57
CCSCC1COC(c2cccn2Cc2ccc(C)cc2)=N1 (centres undefined)	i	>57
O=C(CSc1nc2ncc(Br)cc2[nH]1)Nc1ccc2c(c1)OCO2	i	>57
CCOC(=O)CC(=O)Nc1nc2ccccc2s1	i	nt
COC(=O)[C@@]1(Cc2ccccc2)[C@H]2c3cc(C(=O)N(C)C)n(Cc4ccc(S(C)(=O)=O)cc4)c3C[C@H]2CN1C(=O)c1ccccc1	i	nt
O=C(CSc1nc(-c2ccco2)cc(C(F)(F)F)n1)NC1CCCC1	i	nt
O=C(NC1CCCC1)C1CCCN(S(=O)(=O)c2cccc3cccnc23)C1 (centres undefined)	i	nt
Cc1ccc(Cn2c(=O)c3c(nc4n3CCN4Cc3ccco3)n(C)c2=O)cc1	i	>57
O=C(OCC(=O)N1CCCCC1)c1cc2ccccc2cc1O	i	>57
CCCCCCOC(=O)C1=C(C)NC(=O)NC1c1ccc(O)cc1 (centres undefined)	i	>57
Cc1cc(C(=O)OCn2nnc3ccccc3c2=O)c(C)o1	i	>57
Cn1c(=O)n(C)c2cc(S(=O)(=O)NCCc3ccccc3)ccc21	i	>57
O=C(NCc1ccco1)c1cc2n(n1)C(C(F)(F)F)CC(c1ccc(F)cc1)N2 (centres undefined)	i	>57
COc1ccc(-n2c(Cc3cc(=O)[nH]c(=O)[nH]3)nnc2SCC(=O)NC2CCCC2)cc1	i	nt
CNC(=O)c1ncnnc1N(C)C(=O)NCc1ccccc1	nt	>26
O/N=C(\COc1ccccc1O)c1ccccc1	i	>57
O=C(Nc1ccccc1C(=O)NCc1ccc(Cl)cc1)c1ccco1	i	>57
Cn1c(=O)[nH]c(=O)c2c1nc(Br)n2CCCCSc1nc2ccccc2o1	i	>57
CCCn1c(-c2ccc(F)cc2)nc2c(NCCN3CCCCC3)nc(C)nc21	i	nt
Cc1cc(Cl)c(OCCCn2cncn2)c(Br)c1	i	?
O=C1c2ccccc2-c2c1cccc2C(=O)N1CCN(C(=O)c2ccco2)CC1	i	nt
O=S(=O)(Nc1ccc(Cl)c(C(F)(F)F)c1)c1cnc[nH]1	i	>57
O=C(Nc1cccc2ncccc12)c1cccnc1	i	>57
Cc1csc2ncc(C(=O)NCc3ccccn3)c(=O)n12	i	nt
COc1ccccc1CN1CC2(CCN(C(=O)c3cc(C(F)(F)F)cc(C(F)(F)F)c3)CC2)C1	i	nt
O=C(CCc1nc2ccccc2[nH]1)NC1CCCCC1	i	nt
CCCn1nc(NC(=O)c2cccs2)c2cc3cc(OC)ccc3nc21	i	i
CC(=O)NC(C1C(=O)CC(C)(C)CC1=O)(C(F)(F)F)C(F)(F)F	i	>57
COC(=O)c1cccnc1-n1c(=O)c2cccnc2n(Cc2ccc(Cl)cc2)c1=O	i	>57
O=C(c1ccc(Cl)cc1)c1ccc(OCC(O)CN2CCOCC2)cc1 (centres undefined)	i	nt
COc1ccc(CNc2nc(-c3ccc(C(=O)N(C)C)cc3)nc3ccccc23)c(OC)c1	i	nt
COc1ccc(C2CC(c3ccc(Cl)cc3Cl)Nc3nc(N)nn32)cc1 (centres undefined)	i	nt
O=C(Cc1cccs1)Nc1ccc(S(=O)(=O)N2CCCCC2)cc1	i	>57
Cc1ccc(Cn2c(SCC(C)C)nc3c2c(=O)[nH]c(=O)n3C)cc1	i	>57

# (listing goes on)
Compound	TsaE inh	Bst PK mod
c1ccc(CN2CCN(CCCNc3ccc4nnc(-c5ccccc5)n4n3)CC2)cc1	i	nt
O=C1C(=C(O)c2ccccc2)C(=O)c2ccccc21	i	nt
N#Cc1cccc(NC(=O)N2CCC(c3nc4c(nnn4Cc4cccc(Cl)c4)c(=O)[nH]3)CC2)c1	i	>57
Clc1ccc(-c2noc(CN3CCCC3)n2)cc1	i	>57
CC(C)=CCCC(C)N(C=O)C(C)CCC=C(C)C (centres undefined)	i	nt
COc1cccc(CNC(=O)c2ccc3nc[nH]c3c2)c1	i	>57
CCOC(=O)CSc1nnc(CNc2ccccc2Cl)n1-c1ccccc1	i	>57
CCOC(=O)C1/C(=N\O)CC(C)(O)C(C(=O)OCC)C1c1ccc(N(C)C)cc1 (centres undefined)	nt	>26
Cc1c(Cl)cccc1Nc1ccccc1C(=O)O	i	>26
c1cncc(CNc2nc(N3CCOCC3)nc(N3CCOCC3)n2)c1	i	nt
CSCC[C@@H](Nc1nc(-c2ccccc2)nc2c1oc1ccccc12)C(=O)O	i	i
OC(COc1ccc(Br)cc1)CN1CCOCC1 (centres undefined)	i	>57
CCOc1ccccc1N1CCN(C(=O)c2ccccc2)CC1	i	>57
O=C(CSc1nnc(-c2cnccn2)n1Cc1ccco1)c1ccc2ccccc2c1	i	?
CC(=O)NC1(C(F)(F)F)C(=O)Nc2c1c(=O)[nH]c(=O)n2Cc1ccco1 (centres undefined)	i	>57
Cc1cccc(-n2nnnc2SCc2csc(-c3ccccc3)n2)c1	i	>57
CCn1c(SCC(=O)Nc2nc(C)cs2)nnc1C(NC(=O)c1ccccc1Cl)C(C)C (centres undefined)	i	>57
COc1ccc2c(c1)[C@]1(C)CCC[C@](C)(CO)[C@@H]1CC2	i	nt
Cc1nc2nc(SCC(=O)NCc3ccco3)nn2c(C)c1Cc1ccccc1	i	>57
COc1cccc(NC(=O)C2C3C=CC4(O3)C2C(=O)N(C(C)C)C4C(=O)NC2CCCCC2C)c1 (centres undefined)	i	>57
C=CCn1c(=S)[nH]c2nc3c(cc2c1=O)COC(C)(C)C3	nt	>26
Cn1nnnc1SCSc1nnnn1C	i	>57
O=C1CC(c2ccncc2)c2cc3c(cc2N1)OCO3 (centres undefined)	i	>57
Cc1cc(=O)n2[nH]c(C)c(-c3ccccc3)c2n1	i	nt
Cn1c(=O)c(-c2ccccc2)nc2cnc(N3CCNCC3)nc21	i	nt
COC(=O)c1ccc(C(/C=C/[C@@H](C)C(=O)NCc2ccc(OC)c(O)c2)NC(=O)OCc2ccccc2)cc1 (some centres undefined)	?	nt
CC(=O)c1ccc(OCC(O)CN(C)Cc2cccs2)cc1 (centres undefined)	i	>57
Cc1cc([N+](=O)[O-])c(C)c(Br)c1C	i	nt
COCCCNC(=O)Cn1cc(C(=O)C2CC2)c2ccccc21	i	>57
O=C(c1cnn2c(C(F)(F)F)cc(-c3ccc(Br)cc3)nc12)N1CCOCC1	i	nt
Cc1ccc(/C=c2\sc3nc(-c4cccs4)nn3c2=O)o1	i	nt
CC1(C)CC(=O)C(C=Nc2ccccc2C(=O)O)=C(O)C1	i	>57
Cn1c(=O)c2c(ncn2CC(=O)Nc2cc(Cl)c(Cl)cc2Cl)n(C)c1=O	i	>57
CCCCCCn1c(CN2CCN(C)CC2)nc2c1c(=O)n(C)c(=O)n2C	i	nt
CCc1nc(NC(C)C)c2oc3ccccc3c2n1	i	nt
O=C(C1CCN(S(=O)(=O)c2cccc3cccnc23)CC1)N1CCn2c1nc1ccccc12	i	nt
COCCNc1nc(-c2ccc(C(=O)N(C)C)cc2)nc2ccccc12	?	nt
CCOc1c(N2CCCCC2)c(=O)c1=O	i	>57
Cc1ccc(NS(=O)(=O)c2cc(C(=O)N3CCN(C)CC3)ccc2C)cc1	i	>57
S=c1[nH]nc(-c2cccc(Br)c2)o1	i	>57

# 2 neighbouring compounds from above, quoted:
Compound	TsaE inh	Bst PK mod
O=C1C2ON(c3ccccc3)C(c3cccnc3)C2C(=O)N1c1ccccc1 (centres undefined)	nt	>11
CCOC(=O)c1sc(NC(=O)CSc2nnc3c4ccccc4n(CC)c3n2)nc1C	i	nt

# (continued)
Compound	TsaE inh	Bst PK mod
O=C(Cn1nnc(-c2ccccc2-n2cnnn2)n1)NCc1ccccc1	i	>57
Cc1cc2oc(=O)cc(CN3CCC(C)CC3)c2cc1Cl	i	>57
COCCNC(=O)c1snc2ccc(Cl)cc12	i	>57
Cc1cc(Cl)ccc1OCCCC(=O)N1CCN(C(=O)c2ccco2)CC1	i	>57
Cc1ccc(CCNC(=O)C2CCN(S(=O)(=O)N3CCC4(CC3)OCCO4)CC2)cc1	i	>57
COc1ccc(-c2noc(CCC(=O)NCC3CCN(Cc4cccc(C)c4)CC3)n2)cc1	i	>57
Nc1ncnc(Nc2ccccc2C(F)(F)F)n1	i	>57
CC12CC(c3ccccc3O1)C(C(=O)NCc1ccccc1)C(=O)N2 (centres undefined)	i	>57
O=C(CCN1C(=O)C2C3C=CC(C3)C2C1=O)NCCN1CCCc2ccccc21 (centres undefined)	i	>57
Cc1ccc2c(CN3C(=O)NC(C)(c4ccc5c(c4)OCO5)C3=O)cc(=O)oc2c1 (centres undefined)	i	>57
O=C(OCC(=O)N1CCN(C(=O)COC(=O)c2ccncc2)CC1)c1ccncc1	i	>57
Cc1csc(SCC(=O)NCc2cccs2)n1	i	>57
COC(=O)c1cc(-c2ccccc2)n(CC(=O)O)c1C	i	>57
COC(=O)c1ccc2c(=O)[nH]c(CN3c4ccccc4CC3C)nc2c1 (centres undefined)	i	>57
c1ccc(C(c2ccccc2)N2CCC3(CCNCC3)CC2)cc1	i	nt
Cn1cnnc1SC(C(=O)c1ccccc1)c1ccccc1 (centres undefined)	i	>57
CCOC(=O)Cc1csc(SCC(=O)N2CCN(c3ccc(OC)cc3)CC2)n1	i	>57
CC1CCN(c2nc3c(c(=O)n(C)c(=O)n3C)n2CCSc2nc3ccccc3o2)CC1	i	>57
NC(=O)CN1CCN(C(=O)NC2CCCCC2)CC1	i	nt
C=CCCCCCC	i	nt
CCOC(=O)N1CCN(C(=O)CSc2ccc(Cl)cc2)CC1	i	nt
C[C@@]12CC[C@@H]3[C@H](CCC4=CC(=O)CC[C@]43C)[C@@H]1CC[C@@H]2C(=O)Cn1cnc2c(=S)nc[nH]c21	i	nt
CCn1c(SCC(=O)c2c(N)n(C)c(=O)n(C)c2=O)nc2sc(C)c(C)c2c1=O	i	>57
O=C(NCCCN1CCOCC1)C1(c2ccccc2)CCOCC1	nt	>11
O=C1NC(c2ccccn2)Nc2sc3c(c21)CCC3 (centres undefined)	i	nt
CCOc1ccccc1CNS(=O)(=O)c1ccc2c(c1)oc(=O)n2C	i	nt
Cc1cc(=O)n2c3c(cccc13)CCC2	i	>57
CCCC(=O)Nc1ccc(-c2nc3cc(C)c(C)cc3o2)c(O)c1	i	nt
Cc1cc(NC(=O)CCCC(=O)Nc2ccc(F)cc2)no1	i	>57
COc1ccccc1N1CCN(CCn2c(=O)[nH]c3c([nH]c4ccccc43)c2=O)CC1	i	nt

# Only part of the results is shown, so the mix of outcomes need not match the whole.
